Screening data deposited in PubChem BioAssay by National Center for Advancing Translational Sciences (NCATS).
miR-21 reporter: miR-21 reporter, rising signal; 340,000 tested, under 10 active; Potency, µM (top dose mostly 38.3 µM), for inactives: at the highest dose reporter change, positive = more light; HeLa miR-21 FLuc reporter, luciferase, 48 h; AID 2288; active = well fitted rising curve with a large enough effect; inconclusive = small, poorly fitted or top-dose-only effect; inactive = no such curve, though single readings can be large or run the other way;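 also: % of control where 0% means no effect; miR-21 action dims this reporter so a rising signal means less miR-21 action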
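HeLa cells endogenously expressing miR-21, stably carrying CMV-driven firefly luciferase with a downstream miR-21 binding site, 2000 cells/well. Titrations up to approximately 40 uM, 48 hours; luciferase luminescence read.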
GLA inh pH 4.5: alpha-galactosidase A (human) inhibition, pH 4.5 | P06280 | purified enzyme, 4-MU-alpha-Gal fluorescence, pH 4.5 | activity change, negative = inhibition, % at 105 µM | 230,000 tested, under 10 active | AID 1467; inconclusive = small, poorly fitted or top-dose-only inhibition, or a rising curve; inactive = flat fitted curve, though single readings scatter; no compound was filed as active;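 also: 0% = full activity with enzyme and -100% = basal without enzyme; dose as in the result columns while the protocol names 77 µM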
Target sequence (P06280 whole entry, looked up): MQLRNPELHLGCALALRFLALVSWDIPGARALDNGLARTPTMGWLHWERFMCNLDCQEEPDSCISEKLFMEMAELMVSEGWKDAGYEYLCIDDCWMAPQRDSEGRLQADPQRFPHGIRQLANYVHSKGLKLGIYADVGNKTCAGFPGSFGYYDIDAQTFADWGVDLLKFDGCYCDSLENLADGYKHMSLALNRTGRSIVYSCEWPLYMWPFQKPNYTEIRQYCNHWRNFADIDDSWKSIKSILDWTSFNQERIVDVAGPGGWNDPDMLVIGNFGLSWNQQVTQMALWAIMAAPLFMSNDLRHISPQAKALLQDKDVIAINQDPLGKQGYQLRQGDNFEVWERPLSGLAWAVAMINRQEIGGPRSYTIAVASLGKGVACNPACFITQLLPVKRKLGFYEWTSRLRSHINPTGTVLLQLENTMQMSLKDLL
Rango-impB inh: prevents formation of the Rango-importin beta complex | Rango CFP/YFP FRET sensor + importin beta, 45 min | hit rate 0.031% among 340,000 | Potency, µM (series often up to 92.2 µM), for the others: at the top dose inhibition of complex formation; active = rising FRET ratio curve, often small or poorly fitted; inconclusive = mostly compound fluorescence or quenching in the first reads; inactive = flat curves in all reads;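 also: potency is read from the fitted curve at half-maximal effect; 0% = DMSO wells and 100% = buffer wells lacking importin beta; nearly all actives have a fitted effect of over 15% in size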
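Inhibition scored from the CFP 486 nm/YFP 530 nm FRET ratio 45 min after adding 0.125 microM importin beta to 50 nM Rango biosensor preincubated 5 min with compound (room temperature, PBS with DTT, Tween-20, BSA). No-importin wells as positive control.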
Rango release inh: inhibition of RanGTP-driven Rango-importin beta dissociation. O95149+P62826. Biochemical FRET Rango-importin beta, RanGTP-induced dissociation. Potency, µM (series often up to 46.1 µM), for the others: at the top dose activity change, negative = inhibition. hit rate 0.071% among 340,000. AID 540253; active means falling FRET ratio curve, often poorly fitted, with flat reads before Ran was added; inconclusive means other falling curves, or compound fluorescence or quenching; inactive means flat or rising ratio curve;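 also: potency is read from the fitted curve at half-maximal effect; % of control where 0% means no effect; nearly all actives have a fitted effect of over 45% in size; -100% = wells without RanGTP and RCC1; the record marks most hits as doubtful in a second field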
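Compounds sat 5 min at room temperature with 0.1 uM Rango biosensor plus 0.25 uM importin beta, then FRET pre-read. RanGTP-RCC1 (0.6 uM Ran, 2mM GTP, 0.2 uM RCC1) added for 45 min, and the CFP/YFP post-read measured blocked complex dissociation.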
* marks the source's active call; other numbers are inactive results; ? = inconclusive; . = no result given; & = joins results of further samples.

Values run as follows: Rango-impB inh	Rango release inh	miR-21 reporter	GLA inh pH 4.5
Cc1ccccc1NC(=S)/C(=C(\[O-])c1ccc(C)c([N+](=O)[O-])c1)[n+]1ccccc1
 : -0.2%	-1%	-7%	-22
Clc1ccc(N2CCN(c3ncnc4c3oc3ccccc34)CC2)cc1
 : 1.3%	25%	-10%	4
N#Cc1nc(-c2ccco2)oc1N1CCN(c2cccc(Cl)c2)CC1
 : 5.4%	1%	-8%	-3
N#Cc1c(NC(=S)NC(=O)c2ccccc2)sc2c1CCN(CCc1ccccc1)C2
 : .	.	-21%	-10
COc1ccccc1NC1=NC2(CCCC2)N=C(N)N1
 : -0.4%	0%	-3%	-6
CC(C(=O)OCC(=O)c1ccc(Br)cc1)N1C(=O)C2C3CCC(C3)C2C1=O (configuration not stated)
 : 1.2%	2%	-1%	.
CCCCn1c(N)c(N(CC(C)C)C(=O)c2cc(-c3ccc(OC)c(OC)c3)nc3ccccc23)c(=O)[nH]c1=O
 : 3.9%	-9%	.	.
Cn1c(SCC(=O)N2CCOCC2)nnc1-c1cccc(NC(=O)c2ccccc2F)c1
 : -4.8%	-6%	-4%	-1
CCCc1cc(C(=O)NCc2cccs2)no1
 : -1.2%	-3%	-38%	3
CCOC(=O)/C(C#N)=C/c1cc(C)n(-c2ccc(Br)cc2)c1C
 : .	.	-10%	-9
CC(=O)NS(=O)(=O)c1ccc(NC(=S)NC(=O)c2ccco2)cc1
 : -1.4%	7%	-2%	-1
Cc1ccc(/C=N/n2c(COc3ccccc3)n[nH]c2=S)cc1
 : -2.4%	-5%	1%	.
CCOc1ccc(NS(=O)(=O)c2cc(C(=O)N(CC)CC(=O)NCc3cccs3)ccc2C)cc1
 : 2.8%	2%	.	.
Cc1cnc(C(=O)Nc2ccccc2-c2ccc(C)o2)cn1
 : ?	?	-2%	1
CC(=O)Oc1ccc(C(=O)Nc2ccc(S(=O)(=O)N3CCOCC3)cc2)cc1
 : 0.7%	-3%	-6%	.
C#CCOCCOCCOCCNc1nc(N2CCN(C(=O)[C@H]([C@@H](C)O)n3cc(CCCCN)nn3)CC2)nc(N2CCN(C(=O)[C@H](CCCCN)n3cc(CC(C)O)nn3)CC2)n1 (some centres not stated)
 : -3.6%	-17%	.	.
COc1cccc(-c2cccc(NC(=O)C3CCN(Cc4ccon4)CC3)c2)c1
 : 4.0%	-9%	-2%	.
Cc1ccccc1C(c1ccccc1Cl)N(C)C (configuration not stated)
 : 13%	-13%	.	.
CCC(Sc1nc2n[nH]c(C)c2c(=N)n1-c1ccc(C)c(Cl)c1)C(=O)N1CCOCC1 (configuration not stated)
 : 2.2%	-3%	-14%	3
CCN(CC)CC#CC(C)(C)OC(C)=O
 : 1.9%	-3%	.	.

(more compounds)
Values run as follows: Rango-impB inh	Rango release inh	miR-21 reporter	GLA inh pH 4.5
O=C1CCC([N+](=O)[O-])C(c2cc3c(cc2Cl)OCO3)N1 (configuration not stated)
 : -1.4%	-7%	-3%	-1
O=C1C(Cl)=C(N2CCCCCC2)C(=O)N1c1ccc(Br)cc1
 : ?	?	3%	.
COc1cccc(C(C(=O)NCc2ccccc2)N(C(=O)c2csnn2)C2CC2)c1 (configuration not stated)
 : -0.6%	-18%	-2%	.
Cc1ccccc1N(CC(=O)N/N=C/c1ccccc1Cl)C(=O)c1ccccc1
 : -4.2%	0%	-3%	2
O=C(Nc1ccc(C(=O)N2CCOCC2)cc1)Nc1ccc(Cl)cc1Cl
 : 3.9%	0%	-1%	5
CCOC(=O)CSc1nc2c(sc(=S)n2Cc2ccco2)c(=O)n1-c1ccc(F)cc1
 : 0.6%	-11%	1%	-7
COc1ccc(C2=NCCc3cc(OC)c(OC)cc32)cc1OC
 : ?	10%	-11%	0
N#Cc1c(NC(=O)CN2CCN(C(=O)c3ccco3)CC2)sc2c1CCCCC2
 : -0.4%	-3%	-7%	4
O=C(C1CCCO1)N1CCN(Cc2nc3ccccc3c(=O)[nH]2)CC1 (configuration not stated)
 : -0.4%	1%	-3%	-17
OCC12COC(c3ccccc3)N1C(c1ccccc1)OC2 (configuration not stated)
 : 0.4%	0%	-1%	2
Cc1oc2cc3oc(=O)c(CCC(=O)N(C)CC(=O)O)c(C)c3cc2c1C
 : 3.9%	16%	5%	.
CCOC(=O)c1ccc(NC2OC(=O)c3ccccc32)cc1 (configuration not stated)
 : -0.2%	2%	-5%	-5
COc1ccc(CS(=O)(=O)/C(Cl)=C(/Cl)C(=O)Nc2ccc(OC)nc2)cc1
 : 0.6%	3%	?	13
COc1ccc(NC(=O)c2ccc(NC(=O)c3ccco3)cc2)c(OC)c1
 : -1.9%	-11%	6%	.
Cc1ccc(S(=O)(=O)N2CCCCC2)cc1NC(=O)c1nn(C)c(=O)c2ccccc12
 : 1.3%	8%	.	.
O=C(Nc1ccccn1)c1ccc([N+](=O)[O-])o1
 : 0.5%	-3%	6%	1
CC(=O)NC(CCCNC(=S)NC1CCCCC1)C(=O)O (configuration not stated)
 : -0.1%	5%	0%	9
COc1cc(/C=N/N2CCOCC2)ccc1OC(=O)c1ccco1
 : -2.9%	-8%	-2%	4
C[C@H](CO)N1C[C@H](C)[C@@H](CN(C)C(=O)Nc2ccccc2)Oc2c(NS(=O)(=O)c3cccs3)cccc2C1=O
 : -0.3%	12%	.	.
CCOC(=O)c1c(C)[nH]c(C(C)=NNC(=O)Cn2nc(C)cc2C)c1C
 : -0.9%	12%	.	.

Continuation.
Values run as follows: Rango-impB inh	Rango release inh	miR-21 reporter	GLA inh pH 4.5
CC(C)C1C(c2ccccc2)NC(c2ccccc2)CC1(O)c1ccc(F)cc1 (configuration not stated)
 : 8.4%	-9%	?	-15
COc1ccc(OC)c(-n2c(=O)c3ccccc3c3ccccc3c2=O)c1
 : -1.8%	-5%	-2%	-7
O=C(CCC(=O)OCc1ccc(C(=O)Oc2ccc(Cl)cc2)cc1)Nc1ccccc1
 : -4.2%	-12%	1%	4
O=C(NNc1cccc(Cl)n1)c1c(Cl)cccc1Cl
 : 1.2%	6%	1%	9
COc1cccc(OCc2cc(C(=O)N(Cc3nccn3C)C(C)C)no2)c1
 : -6.4%	-22%	2%	.
COc1ccc(Cn2nnnc2CN(Cc2cc3cc(C)ccc3[nH]c2=O)C2CCCC2)cc1
 : 2.2%	-3%	-7%	-17
O=C(Cc1sc(-c2ccccc2Cl)nc1-c1ccccc1)Nc1ccc(F)cc1
 : -0.6%	2%	0%	4
COc1ccc2ccccc2c1-c1csc(N)n1
 : 1.6%	1%	-19%	.
COc1ccccc1NS(=O)(=O)c1cccc(NC(=O)C(C)NC(=O)c2ccco2)c1 (configuration not stated)
 : 1.0%	4%	.	.
O=C(O)c1ccc(/C=C2\CCCc3c2nc2ccccc2c3C(=O)O)cc1
 : ?	-16%	-2%	.
O=C(Nc1nc(-c2ccco2)c(-c2ccco2)s1)c1cnccn1
 : 0.0%	-9%	.	.
COc1ccc(CCNC(=O)C2CCCN(S(=O)(=O)c3cc(C)ccc3OC)C2)cc1OC (configuration not stated)
 : 5.8%	-24%	-1%	.
C=CCn1c(=N)n(CC(O)COc2ccc(OC)cc2)c2ccccc21 (configuration not stated)
 : 0.3%	0%	2%	-18
CN(C)N(Cc1ccccc1)C(=O)C(O)(c1ccccc1)c1ccccc1
 : 3.6%	7%	17%	.
CCN(CC)CCNC(=O)c1ccc(NC(=O)c2cn(-c3ccccc3)nc2-c2cccs2)cc1
 : 11%	4%	-26%	-9
CC1(C)CCc2cc(S(=O)(=O)N3CCN(S(=O)(=O)c4c(F)cccc4F)CC3)ccc2O1
 : -1.9%	-5%	.	.
CCCC(O)(c1ccc(Br)cc1)C(CN1CCOCC1)c1ccc(Cl)cc1 (configuration not stated)
 : 0.9%	-5%	15%	.
CCOc1ccccc1C(=O)N1CCOCC1
 : 0.6%	7%	0%	1
CC(C)Cn1c(N)c(C(=O)COC(=O)/C=C/c2ccccc2)c(=O)n(C)c1=O
 : -0.7%	-10%	.	.
COc1ccccc1C(=O)C1CCCN(C(=O)c2cc(C(C)C)no2)C1 (configuration not stated)
 : -2.5%	5%	2%	1

Additional compounds
Values run as follows: Rango-impB inh	Rango release inh	miR-21 reporter	GLA inh pH 4.5
CCCCCCc1c(O)nc(SCCN2CCOCC2)[nH]c1=O
 : 4.3%	-8%	-2%	14
COc1cccc(NC(=O)C2C3C=CC4(O3)C2C(=O)N(CCCN2CCC(C)CC2)C4C(=O)NC2CCCCC2)c1 (configuration not stated)
 : -2.1%	-11%	-3%	.
CCOC(=O)C1=CC[C@@H](c2ccccc2Cl)N(S(=O)(=O)c2ccc(C)cc2)[C@H]1C(=O)OCC
 : 0.0%	11%	.	.
CC(=O)NC(CC(=O)NC1CCCCCC1)c1ccccc1 (configuration not stated)
 : 6.2%	-2%	-6%	-4
CCC1CCCCN1C(=O)CSC1=NN2CCCC(=O)N=C2S1 (configuration not stated)
 : -0.8%	-16%	-6%	4
CCCS(=O)(=O)c1c(S(=O)(=O)CCC)c2ccc(C(N)=O)cn2c1C(=O)OC
 : -4.3%	2%	-9%	6
CC/C(O)=C1\C(=O)CCCC1=NCCc1c(C)[nH]c2ccc(C)cc12
 : ?	0%	6%	-2
CCc1cccc(C)c1NS(=O)(=O)Cc1ccccc1
 : -3.2%	-7%	0%	.
Cc1ccc2cc(CN(CC3CCCO3)S(=O)(=O)c3ccc4c(c3)OCCO4)c(=O)[nH]c2c1C (configuration not stated)
 : -6.2%	0%	.	.
COc1ccc([C@@H]2[C@@H]3C(=O)N(C(C)(C)C)C(=O)[C@@H]3[C@]3(Cc4ccc(Cl)cc4)C(=O)N(c4ccc(C)cc4)C(=O)N23)cc1
 : -3.4%	22%	.	.
CCOc1ccc(OCC)c(NC(=O)CN(c2ccc(OC)cc2)S(=O)(=O)c2c(C)noc2C)c1
 : -0.3%	3%	9%	.
COc1ccccc1-n1c(-c2ccccc2)n[nH]c1=S
 : -0.1%	-12%	-9%	9
Cc1ccc(C(=O)NC(=S)NNC(=O)c2ccc([N+](=O)[O-])cc2)cc1
 : 1.4%	12%	-7%	.
COCc1nc2ccccc2n1Cc1ccccc1C
 : -2.3%	0%	-21%	-19
O=C(Nc1nnc(C2CCCCC2)s1)C1CC(=O)N(c2ccc(F)cc2)C1 (configuration not stated)
 : -5.2%	-9%	1%	.
Cc1cc(C)n2nc(SCC(=O)N3CCN(c4ccccc4)CC3)nc2n1
 : 2.2%	3%	.	.
CCOCCCn1c(SCC(=O)NC(C)(C)C)nc2ccccc2c1=O
 : -3.1%	-1%	-7%	4
COc1ccc(NC(=O)CN2CCN(c3ccc(C)cc3C)CC2)cc1
 : -0.4%	-6%	3%	.
O=C(Nc1ccccc1OC(=O)c1ccccc1)c1ccccc1
 : -0.1%	-7%	.	.
CC(C)Cn1c(N)c(C(=O)COC(=O)c2cc(-c3ccco3)nc3ccccc23)c(=O)n(C)c1=O
 : ?	?	0%	0&-2

The list is partial. The share of hits here may be higher or lower than overall.
